High-throughput results deposited in PubChem BioAssay by several laboratories.
Bead autofluor = flagged as autofluorescent in microsphere protease counterscreen; actives 3.1% (n = 360,000); compound autofluorescence counterscreen, microsphere flow cytometry; hits give high values; AID 624483; fluorescence intensity (test concentration not listed);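 active = at least 3 SD above the mean of all compounds, about 16000 in these data; inconclusive = too few beads counted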;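 note: 100 nL of 1 mM stock went into each well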
Sa RN4220 lethal = growth inhibition of S. aureus RN4220, primary screen, OD600; 16 h; inhibition, % (concentration not given with the values); actives 0.33% (n = 330,000);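 active = z-score of -3 or lower and OD600 up to 0.18 on both plates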;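 note: plate controls were untreated cells for no effect and reference antibiotic for full effect; stock transfer was 100 nL into about 80 µL; one replicate is shown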
PrP 5UTR inh = inhibition of PrP 5' UTR reporter expression | cell-based PrP 5' UTR mRNA reporter, plate reader | inhibition, % (no concentration beside the values) | actives 0.35% (n = 340,000) | AID 488862, 2010;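 active = every replicate at 50% or more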;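 note: 0 = median of the neutral control wells; tested in H4 reporter cells; numbers are from one replicate; inactives centre near -14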
Sa ugtP lethal = growth inhibition of ugtP-null S. aureus, primary screen, RN4220 ugtP deletion, OD600; 16 h; some inactives read as strong as hits; growth inhibition, % (no concentration beside the values); actives 0.54% (n = 330,000); AID 1259309, 2017;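 active = z-score under -3 and OD600 up to 0.15 on both plates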;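 note: plate controls were untreated wells for no effect and antibiotic for full effect; wells of about 80 µL received 100 nL stock; the first replicate is given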
BJeLR viability = MLPCN primary cell-based screen for lethality selective to Ras in HRASV12 cells | BJeLR (HRASV12) viability, CellTiter-Glo ATP luminescence, 48 h; reference of the scale not given here | inhibition, % (concentration not given with the values) | actives 0.17% (n = 300,000) | AID 1554, 2009;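 active = replicate mean above 50%; inconclusive = above 50% but judged a plate artefact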;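 note: 50 nL library stock added to about 25 µL; numbers are from one replicate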
Mtb hypoxia inh = PubChem AID 1159583 | M. tuberculosis hypoxia-regulated fluorescent reporter, fluorescence | fluorescence inhibition, % (no concentration beside the values) | actives 0.1% (n = 300,000);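 active = 35 to 45% if threefold the growth effect, above 45% if 1.5-fold the growth effect; inactive = the rest, general growth blockers included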;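 note: wells of about 50 µL received 100 nL stock; 0% = vehicle wells and 100% = reference inhibitor wells; whole bacteria with a GFP reporter of the hypoxia response; strong numbers were not always called active; many hits fall short of the cut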
Mtb hypoxia inh growth = further read-out of Mtb hypoxia inh, marked with its call; growth inhibition, %; measured here: M. tuberculosis growth (absorbance);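 0% = vehicle and 100% = reference antibiotic; read after six days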
* hit, by the source's call; ? = inconclusive; · = not tested or not shown; & = joins results of further samples.

SMILES | Bead autofluor | Sa RN4220 lethal | PrP 5UTR inh | Sa ugtP lethal | BJeLR viability | Mtb hypoxia inh | Mtb hypoxia inh growth
O=C(c1ccc(Br)o1)N(Cc1ccccc1)c1ccccn1 | 19550* | -0.3 | -7 | -3 | -1 | 2 | 10
CC(=O)N1c2ccc(S(=O)(=O)NCCC(=O)N(C)Cc3ccccc3)cc2CC1C (stereo unspecified) | 5521 | 3.6 | -21 | 12 | -1 | 2 | 2
N/C(COc1ncn(-c2ccccc2)n1)=N\S(=O)(=O)c1ccc(Cl)cc1Cl | 2862 | · | -20 | · | -13 | · | ·
CC1CCC(NC(=O)COC(=O)C2CC3CCCC(C2)C3=O)CC1 (stereo unspecified) | · | 4.0 | -12 | 3 | 1 | 4 | 0
COc1ccc(N/C(C)=C2/C(=O)C(=O)N(CCO)C2c2ccc([N+](=O)[O-])cc2)cc1 (stereo unspecified) | 2492 | · | -15 | · | -8 | · | ·
CCOC(=O)c1ccccc1NC(=O)c1cccnc1 | 10557 | 3.8 | 1 | 0 | -20 | 7 | 14
O=C(O)c1cccc(COc2ccccc2Cl)c1 | 22141* | -2.8 | 69* | 0 | 20 | 3 | 5
c1ccc(CCc2nn3c(-c4ccncc4)nnc3s2)cc1 | 7421 | 5.3 | 8 | 10 | 7 | 2 | 3
CCOC(=O)c1oc2ccccc2c1NC(=O)c1cccc(OC)c1 | 22777* | 7.8 | -27 | -18 | 3 | 6 | 11
CN1CCN(c2ccc(CNS(=O)(=O)Cc3ccc(Cl)cc3)cc2)CC1 | 4195 | 1.1 | -41 | 5 | -2 | 4 | 12
CCCCCn1c(=O)c(C(=O)Nc2ccccc2)c(O)c2ccccc21 | 3789 | 1.4 | -16 | 32 | -6 | 2 | 3
NS(=O)(=O)c1ccc(NC(=O)COc2ncnc3c2cnn3-c2ccccc2)cc1 | 5364 | 4.5 | -11 | 7 | 16 | -6 | 6
NC(=O)C(=NO)c1ccccc1 | · | -0.6 | · | -6 | · | 1 | 16
CCC(CC)c1nnc(NC(=O)c2ccc(N3CCCC3=O)cc2)s1 | 10380 | 0.5 | -65 | 7 | -8 | 11 | -5
CCOc1ccc(C(=O)Nc2cccc(NC(=O)c3cccs3)c2)cc1[N+](=O)[O-] | 2384 | 19 | -17 | 1 | -2 | -7 | 5
CCN1CCN(C(=O)c2ccc3c(=O)n(Cc4ccccc4OC)c(=S)[nH]c3c2)CC1 | 18735* | 3.5 | -31 | -1 | 9 | 9 | 13
Cc1ccccc1Nc1c(-c2cccnc2)nc2ccc(Br)cn12 | 3883 | 3.2 | -15 | -4 | 7 | -1 | 3
O=C(CCCNC(=O)c1ccc(Cl)cc1)Nc1ccc(S(=O)(=O)Nc2ncccn2)cc1 | 6273 | 4.8 | 2 | -2 | 5 | 7 | 4
CCOC(=O)c1[nH]c2c(c1C)C(=O)CC(c1ccco1)C2 (stereo unspecified) | 5011 | 2.6 | 61* | 12 | 42 | · | ·
O=C(CN1CCN(c2ccc(O)cc2)CC1)Nc1cc(S(=O)(=O)N2CCCCC2)ccc1Cl | 4529 | 0.0 | 5 | -1 | -6 | 3 | 4
CCOc1ccccc1NC(=O)CNS(=O)(=O)c1ccc2nc(C)sc2c1 | 4382 | 12 | -14 | -4 | -3 | 5 | -1
CC(C(=O)OCC(=O)Nc1ccc2c(c1)OCO2)N1C(=O)c2ccccc2C1=O (stereo unspecified) | 2722 | 3.9 | -20 | -8 | -1 | · | ·
COc1cc(C2NC(=O)NC(C)=C2C(=O)NCc2ccccc2)c(Cl)cc1O (stereo unspecified) | 9571 | 3.5 | -33 | 10 | -1 | 8 | 1
CCOC(=O)OC(C)OC1=C(C(=O)Nc2ccccn2)N(C)S(=O)(=O)c2ccccc21 (stereo unspecified) | · | 3.5 | · | 1 | 6 | 12 | 10
S=c1[nH]c2ccccc2c2ccccc12 | 3518 | 3.7 | -18 | -1 | -1 | 3 | 5

A second format for two compounds above.
Sequence of screens – Bead autofluor, Sa RN4220 lethal, PrP 5UTR inh, Sa ugtP lethal, BJeLR viability, Mtb hypoxia inh, Mtb hypoxia inh growth
NC(=O)C(=NO)c1ccccc1
 : ·, -0.6, ·, -6, ·, 1, 16
CCOC(=O)c1[nH]c2c(c1C)C(=O)CC(c1ccco1)C2 (stereo unspecified)
 : 5011, 2.6, 61*, 12, 42, ·, ·

The listing picks up; the 2 compounds before the break are reprinted first.
SMILES | Bead autofluor | Sa RN4220 lethal | PrP 5UTR inh | Sa ugtP lethal | BJeLR viability | Mtb hypoxia inh | Mtb hypoxia inh growth
CCOC(=O)OC(C)OC1=C(C(=O)Nc2ccccn2)N(C)S(=O)(=O)c2ccccc21 (stereo unspecified) | · | 3.5 | · | 1 | 6 | 12 | 10
S=c1[nH]c2ccccc2c2ccccc12 | 3518 | 3.7 | -18 | -1 | -1 | 3 | 5
O=C(Nc1ccc2c(c1)OCO2)c1sc2cc(Cl)ccc2c1Cl | 2565 | · | -44 | · | 10 | · | ·
CCc1cc(C(=O)Nc2ccc(S(=O)(=O)NC3=NCCCCC3)cc2)sc1C | 4698 | 0.4 | -23 | 0 | 6 | 8 | -2
COC(=O)C1=C(c2ccc(F)cc2F)C[C@@H]2CC[C@H]1N2C(=O)NC1CC1 | 2877 | -9.3 | -8 | -1 | · | 6 | 15
COc1ccc(-n2c(Cc3cccn3C)nnc2SCC(=O)Nc2cc(Cl)ccc2OC)cc1 | 6096 | 2.3 | -22 | 3 | -15 | · | ·
Cc1ccc(-c2cc(C(=O)NN=Cc3ccc(Cl)cc3)n[nH]2)o1 | · | -4.1 | · | 1 | · | -3 | -13
O=C1NC[C@H](Cc2ccc(O)cc2)N(CC2CCCCC2)C1=O | 2998 | · | -25 | · | 7 | · | ·
O=C(C1=C(O)C(=O)N(CCCn2ccnc2)C1c1ccc(F)cc1)c1ccco1 (stereo unspecified) | 6121 | · | -12 | · | -3 | · | ·
C[C@@]1([C@@H](NP(=O)(c2ccccc2)c2ccccc2)c2ccccc2)C[C@H]1CCO | 3617 | · | -12 | · | 11 | · | ·
CCOC(=O)CN1C(=O)c2ccccc2Sc2ncccc21 | 3808 | 4.3 | -28 | -2 | -14 | -1 | -2
CC1CCCCC1NC(=O)c1cccc(S(=O)(=O)N2CCN(C)CC2)c1 (stereo unspecified) | ? | 1.5 | -14 | -1 | -8 | 7 | -2
COc1ccccc1NC(=O)c1cnc(SC)nc1 | 4377 | -3.1 | -19 | 6 | -4 | -5 | 5
CCOC(=O)C1C2COc3ccccc3C2N2C(=O)N(c3ccc(Cl)cc3)C(=O)[C@]12C (stereo partly specified) | · | 5.2&-2.3 | · | -1&0 | · | 5&-4 | 3&9
C=CCn1c(-c2cccs2)nc2ccccc21 | 4847 | -1.2 | -14 | 13 | · | · | ·
CC(=O)n1cc(/C=N/NC(N)=S)c2ccccc21 | 2163 | · | -6 | · | 0 | · | ·
COCC(=O)N1CCCC(N(C)CCc2ccc(OC)c(OC)c2)C1 (stereo unspecified) | 3726 | -2.1 | -24 | 4 | 3 | -6 | 10
O=[N+]([O-])c1ccc(C(=S)N2CCN(c3ccc(F)cc3)CC2)cc1 | 3614 | 11 | -22 | -1 | 1 | 15 | 1
CN(C)c1cccc(C(=O)OCC(=O)Nc2ccccc2-c2ccccc2)c1 | 2566 | 6.1 | -9 | 2 | 1 | 10 | -4
Cc1cc(/C=C2\C(=O)NC(=O)N(c3cccc(F)c3)C2=O)c(C)n1-c1cc(C(=O)O)cc(C(=O)O)c1 | 3930 | -2.5 | -19 | 3 | 4 | 0 | 9
CCn1c(SCC(=O)c2[nH]c(C)c(C(C)=O)c2C)nnc1-c1ccncc1 | ? | 2.1 | 1 | -1 | -1 | -9 | 6
COc1ccccc1C(=O)NCCNC(=O)c1ccco1 | 4597 | 2.9 | -9 | -1 | -6 | 3 | 6
COc1ccc2[nH]c(C(O)(Cc3cccnc3)Cc3cccnc3)cc2c1 | 8038 | 2.5 | -10 | 6 | -1 | 3 | -2
O=C(COC(=O)c1cc(=O)[nH]c2ccccc12)Nc1nc(-c2cccc(Br)c2)cs1 | 2629 | · | -24 | · | -5 | · | ·
CC(NC(=O)c1nc[nH]c1C(=O)N1CCN(c2ccccc2)CC1)C(=O)OCc1ccccc1 (stereo unspecified) | · | -1.7 | · | -6 | · | -9 | -8
Cn1c2c(c(=O)n(C)c1=O)C(c1ccccc1Cl)C(C#N)=C(N)O2 (stereo unspecified) | 6383 | 7.0 | -27 | -4 | 1 | 1 | 7
COCCn1c(=S)[nH]c2cc(C(=O)NCCc3ccc(OC)c(OC)c3)ccc2c1=O | 22219* | 0.6 | -25 | 0 | -11 | 5 | 12

Going on with the list:
SMILES | Bead autofluor | Sa RN4220 lethal | PrP 5UTR inh | Sa ugtP lethal | BJeLR viability | Mtb hypoxia inh | Mtb hypoxia inh growth
Cn1c(=O)c(C(=O)CN2CCOCC2)c(N)n(Cc2ccccc2)c1=O | 4544 | -1.2 | -14 | 3 | -10 | · | ·
O=C(CN1C(=O)C2C3CCC(C3)C2C1=O)N1CCN(Cc2ccccc2)CC1 (stereo unspecified) | 3417 | 1.0 | 0 | 3 | 4 | -6 | -2
CC1(C)CC(N(Cc2ccc(F)cc2)C(=O)c2ccc(F)cc2)CCO1 (stereo unspecified) | 3423 | 0.6 | -12 | 12 | -11 | 5 | 4
COc1ccc(Cl)cc1C(=O)O/N=C(\N)c1ccncc1 | 4042 | 1.2 | -23 | -5 | 2 | 17 | 5
Cc1noc(-c2ccc(Cl)cc2)c1C(=O)O/N=C(\N)c1ccc(C(C)(C)C)cc1 | 5839 | · | 1 | · | 1 | · | ·
CC(=O)Nc1ccc(NS(=O)(=O)c2ccc(OC(C)C(=O)N3CCOCC3)cc2)cc1 (stereo unspecified) | ? | 4.7 | -15 | 11 | -5 | -6 | -12
COc1ccccc1N1CCN(C(=O)C2CC2)CC1 | 3429 | 3.6 | · | 9 | -4 | 12 | -1
CCN1CCN(c2nc(N(C)c3ccccc3)nc(N)c2[N+](=O)[O-])CC1 | 4360 | -4.6 | 2 | -8 | 10 | -7 | 7
OC1(c2ccc(OC(F)F)cc2)CSC(=Nc2cccnc2)N1C1CC1 (stereo unspecified) | · | -9.1 | -2 | -25 | 13 | 10 | 7
CC(C)c1ccc(NC(=O)N2CCCC2C(=O)Nc2ccc(-n3cnnn3)cc2)cc1 (stereo unspecified) | 1987 | -1.0 | 3 | 1 | -1 | 1 | -13
COc1cc(/C=C/C(=O)OCC(=O)Nc2ccccc2Cl)cc(OC)c1OC | 3505 | · | -7 | · | 2 | · | ·
CC(Oc1ccc(Cl)cc1Cl)c1nc(-c2ccc(NC(=O)c3ccccn3)cc2)no1 (stereo unspecified) | 7746 | -0.5 | -42 | 7 | 12 | 2 | 8
COCCCN1C(=O)c2ccc(C(=O)NCCc3ccccc3)cc2C1=O | 4312 | 0.0 | -30 | -1 | -4 | 12 | 6
CN(C[C@H](Cc1ccccc1)N(C[C@H](c1ccccc1)N(CCc1ccccc1)N=O)N=O)N=O | 3531 | · | -10 | · | -8 | · | ·
Cc1ccc(O)c(/C=N/NC(=O)Cc2ccc(Cl)cc2)c1 | 3878 | · | 15 | · | -3 | · | ·
CCCCNC(=O)CCn1nc(-c2ccc(Cl)cc2)c2ccccc2c1=O | 5272 | 4.8 | -17 | 9 | -8 | 12 | 2
CCCn1nnnc1NC(=O)CSc1ccc(Cl)cc1 | 9078 | 7.9 | -22 | -22 | -7 | 7 | 5
CSc1ccc(/C=N/N2CCN(c3ccccc3)CC2)cc1 | 4052 | · | -58 | · | 4 | · | ·
CC(=O)Nc1ccc(S(=O)(=O)N2CCC(C(N)=O)(N3CCCCC3)CC2)cc1 | 2993 | 1.3 | 8 | 5 | 4 | -15 | -3
O=C(CN1C(=O)NC2(CCCCCC2)C1=O)NCCc1ccccc1 | 3829 | 7.2 | 1 | -1 | · | 5 | -3
Cc1cc(C)c2ccc(/C=N/O)nc2c1O | 4002 | · | -7 | · | -3 | · | ·
CC(C)C(=O)N1CCC2(CC1)Oc1ccc(F)cc1C(=O)C21CC(c2ccccc2)=NO1 (stereo unspecified) | 3001 | 6.4 | -20 | -3 | 2 | 8 | 10

Shown tab-delimited: 2 of the compounds above.
structure	Bead autofluor	Sa RN4220 lethal	PrP 5UTR inh	Sa ugtP lethal	BJeLR viability	Mtb hypoxia inh	Mtb hypoxia inh growth
CC(=O)Nc1ccc(S(=O)(=O)N2CCC(C(N)=O)(N3CCCCC3)CC2)cc1	2993	1.3	8	5	4	-15	-3
O=C(CN1C(=O)NC2(CCCCCC2)C1=O)NCCc1ccccc1	3829	7.2	1	-1	·	5	-3
